Bioassay records as filed in PubChem.
Polio RdRp inh: inhibitors of poliovirus RNA polymerase binding and polymerization | P03300 | poliovirus polymerase elongation, fluorescence polarization; stronger effect = lower value | % elongation, % (compound at 16.7 µg/mL) | actives 0.66% (n = 150,000); in the data active = % elongation below about 90%; note: some results filed as inactive read as strong as hits
Target sequence (P03300 1749-2209 limits assumed): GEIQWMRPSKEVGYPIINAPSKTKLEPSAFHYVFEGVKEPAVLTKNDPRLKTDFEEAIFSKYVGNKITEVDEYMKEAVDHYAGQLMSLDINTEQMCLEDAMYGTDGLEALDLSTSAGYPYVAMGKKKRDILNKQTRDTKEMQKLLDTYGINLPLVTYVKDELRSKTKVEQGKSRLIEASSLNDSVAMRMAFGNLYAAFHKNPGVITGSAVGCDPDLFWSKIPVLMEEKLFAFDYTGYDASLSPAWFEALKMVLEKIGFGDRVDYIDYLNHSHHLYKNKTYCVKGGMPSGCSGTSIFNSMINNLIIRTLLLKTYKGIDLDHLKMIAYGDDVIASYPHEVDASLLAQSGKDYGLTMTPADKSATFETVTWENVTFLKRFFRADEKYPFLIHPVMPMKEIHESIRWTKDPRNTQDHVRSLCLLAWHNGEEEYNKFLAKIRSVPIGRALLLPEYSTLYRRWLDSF
Polio RdRp inh intensity: also measured in Polio RdRp inh; calls as there; % elongation; measured here: total intensity read-out; formula for this scale not given here;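 total fluorescence in place of polarization; lower means less elongation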
* = called active by the depositor.

The line under a structure holds: Polio RdRp inh | Polio RdRp inh intensity
COc1ccc(NC(=O)c2cc3c(=O)n(Cc4cccnc4)ccc3nc2C)cc1Cl
  116 | 111
Cc1cnc(=O)[nH]c1SCC(=O)Nc1nc2ccccc2s1
  110 | 106
Cn1c(=O)oc2cc(S(=O)(=O)N3CCC(C(=O)N4CCN(c5ccccc5F)CC4)CC3)ccc21
  110 | 107
COc1ccc(NC(=O)CCN2CCN(CCO)CC2)c(OC)c1
  104 | 102
Fc1ccccc1Cn1c(-c2ccccc2)nc2ccccc21
  112 | 104
O=C(CSc1nc2ccccc2nc1Cc1ccccc1)N1CCc2ccccc21
  108 | 113
Cc1ccccc1CNC(=O)c1cnc2sc(N3CCOCC3)nn2c1=O
  108 | 110
COc1cccc(C(=O)NCCc2csc3nc(-c4ccccc4F)nn23)c1OC
  105 | 110
Cc1ccc(-c2nc3sccn3c2Nc2ccc(C)c(C)c2)cc1
  108 | 108
CC(=O)N1c2ccccc2CC1C(=O)N1CCN(c2cccc(C)c2C)CC1 (stereo unspecified)
  103 | 105
COCCNC(=O)CN1C(=O)c2cccnc2Sc2ccccc21
  105 | 102
COc1cccc(CNC(=O)c2ccc3nc(-c4ccc(F)cc4)c(-c4ccc(F)cc4)nc3c2)c1
  109 | 101
COc1ccc(C2c3c(oc4ccc(Cl)cc4c3=O)C(=O)N2CCCN(C)C)cc1OC (stereo unspecified)
  115 | 109
CC(=O)c1ccc(N2CCN(C(=O)Nc3ccc(C)cc3)CC2)cc1
  115 | 107
COC(=O)c1sc2cccc(F)c2c1S(=O)(=O)Nc1cc(OC)cc(OC)c1
  112 | 105
Cc1cccc(C(=O)Nc2ccc(S(=O)(=O)N(Cc3ccccc3)c3ccccc3)cc2)c1
  108 | 102
COc1ccccc1OCCCCn1c(C2CC(=O)N(c3ccccc3Cl)C2)nc2ccccc21 (stereo unspecified)
  108 | 114
COc1cccc(-c2nc(SCC(=O)Nc3ccc4c(c3)OCCO4)c(-c3ccccc3)[nH]2)c1
  114 | 116
Cc1ccc(S(=O)(=O)CC(=O)Nc2nc3c(C)cccc3s2)cc1
  106 | 107
COc1ccc(-n2nc(-c3ccc(C)cc3)c3cnc4cc(F)c(F)cc4c32)cc1
  107 | 105
CCOc1cc(-c2nc(-c3ccc(-c4ccc(C)cc4)nc3OC)no2)cc(OCC)c1OCC
  109 | 111
CCc1ccc(S(=O)(=O)NCc2ccc3c(c2)CCN3C(=O)c2ccc(C)cc2)cc1
  105 | 106
COC(=O)c1cc(NC(=O)c2ccc(-c3ccc(Cl)cc3Cl)o2)cc(C(=O)OC)c1
  107 | 112
CCOc1cc(C(=O)N(Cc2nc(-c3ccc(C)cc3)no2)C(C)C)cc(OCC)c1OCC
  103 | 104
Cc1nc(N2CCOCC2)c2c(C(=O)N3CCN(c4ccccc4)CC3)c(C)oc2n1
  101 | 107
Cc1ccc(CSc2ncc(Cl)c(C(=O)Oc3ccc(F)cc3)n2)cc1
  106 | 104
CCc1c(CN2CCN(c3cccc(C)c3C)CC2)csc1C
  56* | 61*
COc1ccc2c(C)c(CCC(=O)NCc3ccccc3OC)c(=O)oc2c1
  109 | 112
COc1ccc(N2CC(NC(=O)c3c(F)cccc3Cl)CC2=O)cc1OC (stereo unspecified)
  111 | 107
O=C(CSc1nc(=O)[nH]c2c1CCC2)Nc1cc(C(F)(F)F)ccc1Cl
  110 | 110
CCCCOC(=O)c1ccc(Nc2nnc(-n3nc(C)cc3C)c3ccccc23)cc1
  104 | 99
CN1C(=O)c2ccccc2Sc2ccc(NC(=O)NCc3ccc(Cl)cc3)cc21
  105 | 106
COc1cc(OC)c(NC(=O)N2CC3CCCN3c3ccccc32)cc1Cl (stereo unspecified)
  106 | 112
CCOc1ccccc1NC(=O)Cc1noc2ccc(C)cc12
  105 | 105
Cc1ccc(NC(=O)c2cc3c(=O)n(Cc4cccnc4)ccc3nc2C)cc1F
  99 | 102
COc1ccc(C)cc1-n1cnc2cc(C(=O)NC3CCCCCC3)ccc21
  103 | 107
CCc1ccccc1Nc1nn2c(=O)c3ccc(C(=O)NCCc4ccccc4)cc3nc2s1
  107 | 111
CCN(CC)CCSc1nnc2c3cc(F)ccc3n(C)c2n1
  100 | 96
CCOc1ccccc1NC(=O)Cn1c(=O)n(-c2ccc(C)c(C)c2)c(=O)c2c(C)c(C(=O)N(C)C)sc21
  108 | 101
CC(C)n1c(SCC(=O)c2ccc(F)cc2)nc2c(sc3ccccc32)c1=O
  109 | 109
COc1cc(OC)c(NC(=O)c2oc3ccc4c(c3c2C)C(=O)CC(C)(C)O4)cc1Cl
  113 | 103
COc1ccccc1N1CCN(CCCNC(=O)c2cnn(-c3ccc(C)c(C)c3)c2C2CCN(C(=O)OC(C)(C)C)CC2)CC1
  107 | 105
COc1ccc(NC(=O)CSc2nc(O)c(C/C=C/c3ccccc3)c(=O)[nH]2)cc1
  105 | 109
CCc1nnc(NC(=O)CSc2nc3c([nH]c4ccccc43)c(=O)n2-c2cc(C)cc(C)c2)s1
  112 | 116
O=C(c1ccc2c(c1)N(Cc1cccc(Cl)c1)C(=O)c1ccccc1S2(=O)=O)N1CCN(Cc2ccccc2)CC1
  112 | 114
Cc1ccc(CNC(=O)c2cc3c(s2)-c2ccccc2SC3)cc1
  110 | 104
CC(C)(C)OC(=O)N1CCC(c2c(C(=O)N3CCN(C(=O)c4ccco4)CC3)cnn2-c2ccc(Cl)cc2)CC1
  113 | 109
O=C(Cn1ccc2cc(S(=O)(=O)N3CCCCC3)ccc21)NCc1ccccc1Cl
  106 | 106
Cc1nc(N2CCCC2)ncc1C(=O)NCc1ccc(Cl)cc1
  108 | 100
O=C(CS(=O)(=O)c1cccc2nsnc12)N1CCN(c2cccc(C(F)(F)F)c2)CC1
  106 | 103
CCOc1cccc(C2c3c(oc4ccccc4c3=O)C(=O)N2c2nc(C)c(C(=O)OC)s2)c1 (stereo unspecified)
  101 | 107
COc1ccc(-c2cc(C(F)(F)F)nc(SCC(=O)N(C)Cc3ccccc3)n2)cc1
  102 | 106
Cc1ccc2nc(-c3cccc(NC(=O)c4cccc5c(Cl)cccc45)c3)oc2c1
  102 | 106
CC(C)OCCCn1c(=O)c2ccccc2n2c(-c3cc(Cl)ccc3O)nnc12
  106 | 107
CCOc1ccccc1Nc1sc(C(=O)c2ccccc2)c(N)c1C(=O)NCCc1ccccc1
  112 | 102
CCOc1ccc(NC(=O)NC(C)c2c(-n3cccc3)sc3c2CCN(CC)C3)cc1 (stereo unspecified)
  114 | 118
COc1ccc(OC)c(NC(=O)CSc2nc(-c3ccccc3C)nc3cc(=O)[nH]n23)c1
  104 | 110
COc1cc(CNC(=O)c2cnc3c(-c4cccc(C)c4)c(C)nn3c2C)cc(OC)c1OC
  108 | 107
CCc1nc2c(cnn2-c2ccc(Cl)cc2)c(=O)n1-c1ccc(OC)c(Cl)c1
  105 | 107
O=C(NCc1ccccc1)NC1COc2ccccc2C1 (stereo unspecified)
  98 | 105

Among those listed so far, these have a tert-butyl group.
The line under a structure holds: Polio RdRp inh | Polio RdRp inh intensity
COc1ccccc1N1CCN(CCCNC(=O)c2cnn(-c3ccc(C)c(C)c3)c2C2CCN(C(=O)OC(C)(C)C)CC2)CC1
  107 | 105
CC(C)(C)OC(=O)N1CCC(c2c(C(=O)N3CCN(C(=O)c4ccco4)CC3)cnn2-c2ccc(Cl)cc2)CC1
  113 | 109

Next part
The line under a structure holds: Polio RdRp inh | Polio RdRp inh intensity
Cc1ccc(CNC(=O)CN(c2cccc(C)c2C)S(=O)(=O)c2ccccc2)cc1
  101 | 102
Cc1ccc(NC(=O)c2ccc3c(O)c(S(=O)(=O)c4ccccc4)c(=O)[nH]c3c2)cc1Cl
  98 | 101
CCc1ccc(C(=O)c2cn(Cc3ccc(F)cc3)c3cc(OC)c(OC)cc3c2=O)cc1
  115 | 112
CC(C)c1nn2c(=O)cc(COC(=O)c3ccc4c(c3)OCO4)nc2s1
  102 | 102
CCC(=O)Nc1ccc(C)cc1-c1nc2ccccc2n(CC(=O)c2ccc(C)cc2)c1=O
  108 | 112
CCOc1ccc(CNS(=O)(=O)c2c(C(=O)N3CCC(C)CC3)c(C)n(C)c2C)cc1OC
  106 | 113
Cc1ccc(C)c(NC(=O)Cn2c(=O)n(Cc3ccco3)c(=O)c3oc4ccccc4c32)c1
  99 | 108
COc1ccc(N(CC(=O)Nc2ccc(C)c(C)c2)S(=O)(=O)c2ccc(C)cc2)cc1OC
  110 | 108
CCOC(=O)c1c(NC(=O)C2c3ccccc3Oc3ccccc32)sc(C)c1CC
  107 | 108
CC(C)CCn1c(SCc2c(F)cccc2Cl)nc2ccsc2c1=O
  105 | 110
CN(C)CCNC(=O)CCCN1C(=O)c2cccnc2Oc2ccc(Cl)cc21
  110 | 112
O=C(Nc1cccc(-c2nc3ccccc3[nH]2)c1)c1c(F)cccc1F
  98 | 101
Cc1cccc(-c2nc3c4ccccc4nc(N4CCN(c5cccc(Cl)c5)CC4)n3n2)c1
  100 | 106
CC1CN(C(=O)N2CCC(C(=O)NCCC3=CCCCC3)CC2)c2cc(Cl)ccc2O1 (stereo unspecified)
  107 | 105
Cc1ccc(-n2nnnc2CNC(=O)C(C)(C)C)cc1C
  114 | 117
Cc1ccc2onc(CNC(=O)N(C)Cc3ccccc3)c2c1
  113 | 108
Cc1cc(C)c(S(=O)(=O)Nc2ccc3oc(C)c(C(=O)OC(C)C)c3c2)cc1C
  112 | 110
CCOC(=O)c1ccc(NC(=O)c2cnn(-c3ccc(C)cc3C)c2C2CCN(C(=O)OC(C)(C)C)CC2)cc1
  107 | 106
COc1cccc(NC(=O)CSc2nnc(-c3cccs3)o2)c1
  108 | 108
COc1ccc(CN(C(=O)Nc2cccc(Cl)c2)c2ccccn2)cc1OC
  108 | 101
Cn1c(=O)cc(SCC(=O)NCc2ccc(F)cc2)c2cc(Cl)ccc21
  108 | 108
CCOc1ccc(C(=O)c2cn(CC(=O)Nc3ccc(C)c(C)c3)c3ccc(OCC)cc3c2=O)cc1
  108 | 109
COc1ccc(Cl)cc1NC(=O)CCCN1C(=O)C(c2ccccc2)Oc2cccnc21 (stereo unspecified)
  109 | 103
Cc1ccc(-n2c(=O)c3oc4ccccc4c3n(CC(=O)Nc3ccccc3)c2=O)cc1C
  104 | 102
COC(=O)c1ccc(C2c3c(oc4ccc(C)cc4c3=O)C(=O)N2Cc2ccc3c(c2)OCO3)cc1 (stereo unspecified)
  101 | 106
CCC(=O)N1c2ccccc2CC1C(=O)NCCc1ccccc1OC (stereo unspecified)
  108 | 107
O=c1c(N2CCc3ccccc3C2)csc2ccc(Br)cc12
  112 | 107
Cc1ccc(C(=O)c2sc(Nc3ccccc3F)c(S(=O)(=O)c3ccccc3)c2N)c(C)c1
  101 | 107
COc1ccccc1CNS(=O)(=O)c1c(C)nc2sccn2c1=O
  105 | 108
CCc1ccc2c(c1)c(=O)c(S(=O)(=O)c1ccccc1)cn2CC(=O)Nc1cc(C)ccc1C
  110 | 112

Two of the compounds above, as labelled records.
COc1cccc(-c2nc(SCC(=O)Nc3ccc4c(c3)OCCO4)c(-c3ccccc3)[nH]2)c1
  Polio RdRp inh: 114
  Polio RdRp inh intensity: 116
Cc1ccc(S(=O)(=O)CC(=O)Nc2nc3c(C)cccc3s2)cc1
  Polio RdRp inh: 106
  Polio RdRp inh intensity: 107

Single records (already shown):
Entry for COC(=O)c1ccc(C2c3c(oc4ccc(C)cc4c3=O)C(=O)N2Cc2ccc3c(c2)OCO3)cc1 (stereo unspecified) = Polio RdRp inh: 101; Polio RdRp inh intensity: 106
Entry for COc1ccc(N(CC(=O)Nc2ccc(C)c(C)c2)S(=O)(=O)c2ccc(C)cc2)cc1OC = Polio RdRp inh: 110; Polio RdRp inh intensity: 108
Entry for CN(C)CCNC(=O)CCCN1C(=O)c2cccnc2Oc2ccc(Cl)cc21 = Polio RdRp inh: 110; Polio RdRp inh intensity: 112

More compounds.
The line under a structure holds: Polio RdRp inh | Polio RdRp inh intensity
CCOC(=O)c1cc(C)n(CC2CCC(C(=O)Nc3ccc(OC)cc3)CC2)c1C (stereo unspecified)
  111 | 110
CCC(CC)C(=O)Nc1cccc(-c2nc3ncccn3c2C)c1
  110 | 111
Cc1ccccc1CN1CCc2nc(N3CCN(c4ccccn4)CC3)ncc2C1
  103 | 108
CCC(CC)c1nn2c(=O)cc(COc3ccc(NC(=O)c4ccc(Cl)cc4)cc3)nc2s1
  109 | 110
O=S(=O)(Nc1cccc(F)c1)c1ccc2[nH]c3c(c2c1)CCCCC3
  104 | 106
COc1cccc(-c2cn3c(n2)sc2cc(C(=O)NCc4ccccc4F)ccc23)c1
  102 | 95
Cc1nc(SCC(=O)Nc2ccc(C)c(Cl)c2)cc(-c2ccccc2)n1
  103 | 101
CCCCn1c(CCNC(=O)c2ccc(F)cc2)nc2ccccc21
  104 | 110
COc1ccc(OC)c(CNC(=O)NCc2noc3ccc(C)cc23)c1
  118 | 115
COc1ccc(CN(Cc2ccco2)c2cnc(S(C)(=O)=O)nc2C(=O)Nc2ccc(C)cc2C)cc1
  105 | 102
CC(=O)c1ccc(NC(=O)C2CCC(CNS(=O)(=O)c3ccc(Br)s3)CC2)cc1 (stereo unspecified)
  108 | 110
O=C(CCS(=O)(=O)c1cc(Br)cc2c1N(C(=O)C1CC1)CC2)NCc1ccc(Cl)cc1
  100 | 101
COc1ccccc1NC(=O)c1oc2ccccc2c1NC(=O)Cc1ccccc1
  106 | 105
CSc1ncc(C(=O)Nc2ccccc2C(=O)c2ccccc2)c(C)n1
  111 | 123
CCOc1cc(C(=O)Nc2ccc3c(c2)n(C)c(=O)c(=O)n3C)cc(OCC)c1OCC
  105 | 106

A portion of the library; the hit share may differ from the screen's.
